# Bioassay records deposited in PubChem BioAssay by several laboratories.
# PKD1 inh = PKD1 (human) kinase inhibition. Q15139. PKD1 kinase fluorescence polarization assay. inhibition, %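 (about 10 µM by stock and volumes)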. 200,000 tested, 0.056% active. AID 797;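 active = inhibition of 50% or more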;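 note: controls were vehicle for no effect and a reference inhibitor for full effect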
# Target sequence (Q15139 whole entry, looked up): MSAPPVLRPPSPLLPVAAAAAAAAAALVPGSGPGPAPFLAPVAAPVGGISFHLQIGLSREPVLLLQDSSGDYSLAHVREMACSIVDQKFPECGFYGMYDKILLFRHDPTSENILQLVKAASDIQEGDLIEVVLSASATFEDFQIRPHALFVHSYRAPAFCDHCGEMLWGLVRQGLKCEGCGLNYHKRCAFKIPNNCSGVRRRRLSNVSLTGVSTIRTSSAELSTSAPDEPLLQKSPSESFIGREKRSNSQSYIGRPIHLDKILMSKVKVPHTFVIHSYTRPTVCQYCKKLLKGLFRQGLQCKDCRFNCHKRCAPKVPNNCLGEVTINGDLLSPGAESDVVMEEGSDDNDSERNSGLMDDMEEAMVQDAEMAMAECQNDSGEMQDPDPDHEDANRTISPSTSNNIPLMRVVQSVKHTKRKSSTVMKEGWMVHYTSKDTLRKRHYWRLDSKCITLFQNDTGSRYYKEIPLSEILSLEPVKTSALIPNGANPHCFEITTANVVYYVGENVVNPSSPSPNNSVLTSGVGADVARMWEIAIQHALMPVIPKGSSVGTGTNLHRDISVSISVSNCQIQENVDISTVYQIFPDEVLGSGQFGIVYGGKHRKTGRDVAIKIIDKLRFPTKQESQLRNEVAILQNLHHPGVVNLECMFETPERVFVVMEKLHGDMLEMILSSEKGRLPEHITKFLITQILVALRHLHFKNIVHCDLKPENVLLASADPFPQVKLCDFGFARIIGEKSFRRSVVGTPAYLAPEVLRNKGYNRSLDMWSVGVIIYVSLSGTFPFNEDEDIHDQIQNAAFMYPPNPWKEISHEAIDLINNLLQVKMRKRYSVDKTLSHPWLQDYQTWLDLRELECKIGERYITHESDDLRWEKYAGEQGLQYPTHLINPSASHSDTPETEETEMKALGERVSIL
# Insulin prom inh = TRM-6 insulin promoter activity inhibition. inhibition, % at 2 µM. TRM-6 cells (human fetal islet line), insulin promoter-eGFP reporter, imaging; reporter expression induced with tamoxifen. 130,000 tested, 0.9% active;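 active = inhibition above the mean plus 3 SD, with well images judged a real hit on visual review, cut at about 60% in these data, passing the limit was not always enough; inconclusive = inhibition over the cutoff but images rejected on review; inactive = inhibition not above the cutoff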
# HSV augment = HSV replication enhancement; AID 1956; 220,000 tested, 0.005% active; HSV replication augmentation in cells, fold increase; maximum fold increase;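 active = peak rise of 1.5-fold or more in the series; inconclusive = self-fluorescent or not available for retest; tested in PC3 cells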;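 note: first round at 10 µM; read as green reporter fluorescence; hits show the peak of a series up to 25 µM; 1 = signal of infected wells without compound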
# GALR2 agonist = agonists of human galanin receptor 2 (GALR2); O43603; GALR2-expressing cells, agonist activation read-out; activation, %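 (tested at 5 µM)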; 140,000 tested, 0.48% active;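 active = above mean plus 3 SD of all compounds, about 5% in these data, not always enough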;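 note: 0% = vehicle buffer wells and 100% = reference agonist at full effect; tested in CHO reporter cells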
# RGS16-Gao = regulators of human RGS16-Galphao interaction; binding response (% of control), % at 10 µM; 220,000 tested, 0.38% active; bead-based flow cytometry RGS16-Galphao binding, fluorescence; actives lie on both sides; O15492+P09471; AID 1441;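 active = below 25% or above 175%, edge rows of some plates excepted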;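 note: Galphao activated by GDP with aluminum fluoride before binding; 100% = wells without compound and 0% = beads without RGS; some results beyond the cut were filed as inactive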
# Insulin prom inh cell count = further read-out of Insulin prom inh, marked with its call; normalized cell count, %; measured here: cell count, toxicity; reference of the scale not given here;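 cells exposed to compound for 48 h; stained nuclei by imaging scaled within each plate; lower means fewer cells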
# HSV augment primary fold = further read-out of HSV augment, marked with its call; fold increase; compound at 10 µM; measured here: primary screen fold increase 10 uM; tested in PC3 cells;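 GFP signal in the first replicate; 1 = infected wells without compound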
# * marks the source's active call; other numbers are inactive results; i = inactive; ? = inconclusive; / = not tested or not shown.
# Abbreviations: A = PKD1 inh; B = Insulin prom inh; C = Insulin prom inh cell count; D = HSV augment; E = HSV augment primary fold; F = GALR2 agonist; G = RGS16-Gao
CCc1nnc(NC(=O)C(C)N2C(=O)C3C4C=CC(C4)C3C2=O)s1 (stereo not given)
  A: -6	B: /	C: /	D: i	E: 1	F: -0.3	G: 99

CS(=O)(=O)N(Cc1ccc(Cl)cc1)c1ccc(C(=O)NCc2ccccn2)cc1
  A: /	B: /	C: /	D: i	E: 1	F: /	G: 99

Cc1onc(-c2ccccc2)c1C(=O)Nc1sc2c(c1C(N)=O)CCC2
  A: 1	B: /	C: /	D: i	E: 0.85	F: -0.9	G: 97

O=C(CSc1nc2ccccc2c(=O)n1Cc1ccc(C(=O)NC2CC2)cc1)NCc1ccco1
  A: -3	B: 26	C: 81	D: i	E: 0.84	F: -1.6	G: 101

O=C(NCCCO)/C(=C\C=C\c1ccccc1)NC(=O)c1ccccc1Cl
  A: 0	B: -234	C: 128	D: i	E: 0.88	F: -0.2	G: 94

CCCc1[nH][nH]c(=O)c1C(c1ccccc1)C(C#N)C#N (stereo not given)
  A: -3	B: 50	C: 117	D: i	E: 1.1	F: -1.0	G: 99

CCCCCn1c(CN2CCN(CCO)CC2)nc2c1c(=O)n(C)c(=O)n2C
  A: -7	B: /	C: /	D: i	E: 1	F: -1.6	G: 96

O=C(NC1CC1)C1=C[C@@H](c2c[nH]c3ccccc23)C[C@@H](OCc2ccc(CO)cc2)O1
  A: /	B: /	C: /	D: i	E: 0.93	F: /	G: 103

CCOC(=O)CSc1n[nH]c(NC(=O)CC)n1
  A: -6	B: /	C: /	D: i	E: 1.1	F: /	G: 107

Cc1cnc(NC(=O)CSc2ncc(-c3ccccc3)n2Cc2ccco2)s1
  A: 4	B: -64	C: 150	D: i	E: 0.76	F: -0.7	G: 108

CCOC(=O)C1CCCN(C2CC(=O)N(c3ccc(NC(C)=O)cc3)C2=O)C1 (stereo not given)
  A: 7	B: 12	C: 76	D: i	E: 0.91	F: /	G: 101

COc1ccc(NS(=O)(=O)c2ccc(NC(=S)NC(=O)c3ccc(Br)cc3)cc2)nn1
  A: 1	B: 22	C: 59	D: i	E: 1.1	F: 0.1	G: 47

CCOC(=O)C1CN(c2cc3c(cc2F)c(=O)c(C(=O)O)cn3CC)OC1C(=O)OCC (stereo not given)
  A: -6	B: /	C: /	D: i	E: 0.88	F: -1.3	G: 91

Cc1cc(C)c(NC(=O)CCn2nnc3ccccc32)c(C)c1
  A: -1	B: -14	C: 127	D: i	E: 0.96	F: /	G: 103

CCCn1nc(NC(=O)c2ccncc2)c2cc3ccccc3nc21
  A: -2	B: 31	C: 144	D: i	E: 1	F: 1.2	G: 95

O=C(O)/C(=C\c1ccc(Cl)c([N+](=O)[O-])c1)c1ccc(S(=O)(=O)N2CCCCC2)s1
  A: 1	B: /	C: /	D: i	E: 0.84	F: /	G: 102

COc1ccc(/C=C(/NC(=O)c2ccccc2)C(=O)N/N=C/c2ccc3c(c2)OCO3)cc1OC
  A: 2	B: /	C: /	D: i	E: 0.75	F: -3.3	G: 109

CCNC(=O)COC(=O)CCNC(=O)c1ccc(Cl)cc1
  A: /	B: /	C: /	D: i	E: 0.95	F: /	G: 100

CC1CCC(NC(=O)c2cnccn2)CC1 (stereo not given)
  A: 3	B: 7	C: 107	D: i	E: 0.94	F: -1.8	G: 95

O=S(=O)(NCCSCc1ccc(Cl)c(Cl)c1)c1ccc2c(c1)OCCO2
  A: -2	B: 22	C: 103	D: i	E: 0.96	F: 3.9	G: /

O=C(NCc1ccccn1)c1ccc(Cn2c(=S)[nH]c3ccccc3c2=O)cc1
  A: -3	B: -62	C: 145	D: i	E: 1	F: /	G: 94

COc1cc(/C=C2/C(=O)NN(c3cccc(C)c3)C2=O)cc([N+](=O)[O-])c1O
  A: 1	B: /	C: /	D: i	E: 1	F: /	G: 100

CCN(CC)Cc1cc(C(C)=O)ccc1OCC(C)C
  A: -6	B: /	C: /	D: i	E: 0.94	F: -2.0	G: 92

CC(OC(=O)CNC(=O)c1ccccc1F)C(=O)Nc1nc(-c2ccccc2)cs1 (stereo not given)
  A: -16	B: 53	C: 142	D: i	E: 0.93	F: -1.4	G: 108

COc1cc([N+](=O)[O-])cc2cc(C(=O)N3CCCC3)c(=O)oc12
  A: -1	B: 11	C: 98	D: i	E: 0.93	F: /	G: 99

# (next part)
# Abbreviations: A = PKD1 inh; B = Insulin prom inh; C = Insulin prom inh cell count; D = HSV augment; E = HSV augment primary fold; F = GALR2 agonist; G = RGS16-Gao
CC(C)c1ccc(-c2noc(C3CCCN(S(C)(=O)=O)C3)n2)cc1 (stereo not given)
  A: 1	B: -11	C: 107	D: i	E: 1	F: -1.9	G: 103

Cc1c(NC(=O)c2ccc3c(c2)OCO3)c(=O)n(-c2ccccc2)n1C
  A: 1	B: -11	C: 184	D: i	E: 0.81	F: -1.9	G: 79

Cc1ccc(/C=C/C(=O)N2CCN(c3ccc(F)cc3)CC2)o1
  A: -4	B: 13	C: 113	D: i	E: 1	F: 0.2	G: 97

COc1ccc(N2CCN(S(=O)(=O)c3ccc(Cl)c(C(F)(F)F)c3)CC2)cc1
  A: -13	B: 27	C: 128	D: i	E: 0.98	F: -4.0	G: 110

CCn1nnc(NC(=O)C(C)Oc2ccc(Cl)cc2Cl)n1 (stereo not given)
  A: -1	B: 12	C: 81	D: i	E: 0.92	F: -2.5	G: 70

CSc1nc(SC(C)C(=O)O)c2c3c(sc2n1)COC(C)(C)C3 (stereo not given)
  A: /	B: /	C: /	D: i	E: 0.98	F: /	G: 100

Cc1cccc(Nc2nc(N)nc(CC(=O)CSc3ccc(Cl)cc3)n2)c1
  A: -8	B: /	C: /	D: i	E: 0.98	F: -1.8	G: 112

CCOC(=O)c1ccc(NC(=S)Nc2cc(C)cc(C)n2)cc1
  A: -1	B: /	C: /	D: i	E: 0.87	F: /	G: 103

Cc1cc(C(=O)Nc2ccc(OCc3ccccc3)cc2)c(C)o1
  A: -4	B: /	C: /	D: i	E: 0.95	F: /	G: 91

CCOC(=O)CN1C(=O)N[C@@H](c2ccccc2)C(C(=O)OC)=C1C
  A: 5	B: 10	C: 120	D: i	E: 1.2	F: -1.8	G: 101

COc1ccc(NC(=S)NCCCN2CCCC2)cc1
  A: 4	B: /	C: /	D: i	E: 0.93	F: /	G: 95

Clc1ccc(C2Nc3ccccc3-n3cccc32)cc1 (stereo not given)
  A: -23	B: /	C: /	D: i	E: 1.2	F: 3.9	G: 139

Cc1[nH]c2ccccc2c1C(=O)CN1C(=O)NC(C)(c2ccc(Cl)cc2Cl)C1=O (stereo not given)
  A: -5	B: /	C: /	D: i	E: 0.95	F: 0.8	G: 109

Cc1[nH]n(C(C)(C)C)c(=O)c1Sc1ccc(Cl)cc1
  A: 0	B: /	C: /	D: i	E: 0.81	F: -1.9	G: 98

CCc1c(C)c2c(C)nn(-c3ccccc3)c2[nH]c1=O
  A: -3	B: -22	C: 85	D: i	E: 0.95	F: 1.2	G: 102

COc1ccc(C)cc1NS(=O)(=O)c1ccc(NC(=O)CN(c2cc([N+](=O)[O-])ccc2C)S(C)(=O)=O)cc1
  A: 0	B: 12	C: 104	D: i	E: 0.61	F: 0.7	G: 95

Cc1cc2cc3c(cc2nc1SCC(=O)O)OCCO3
  A: 1	B: 17	C: 80	D: i	E: 1	F: -0.8	G: 101

CC1=C/C(=C\C=C(C#N)C#N)N(C)c2ccccc21
  A: /	B: /	C: /	D: ?	E: /	F: /	G: 101

CCOc1ccc(OCC)c(NC(=O)C2CCN(S(=O)(=O)c3c(C)noc3C)CC2)c1
  A: -4	B: 3	C: 47	D: i	E: 0.93	F: -0.8	G: 102

CC(=O)Nc1c(C)ccc(CNC(=O)COc2cc(C)ccc2C)c1C
  A: -3	B: -92	C: 89	D: i	E: 0.98	F: -2.1	G: 100

CC(C)(C)c1ccc(OCCON2C(=O)CCC2=O)c(Cl)c1
  A: 0	B: 17	C: 77	D: i	E: 0.93	F: -0.4	G: 102

CCOC(=O)NC1(Nc2ccc(Cl)cn2)Oc2ccccc2O1
  A: -15	B: /	C: /	D: i	E: 0.85	F: -0.7	G: 143

Cc1ccc(N(CC(=O)N2CCCCC2)S(=O)(=O)c2ccc(C)cc2)cc1
  A: 2	B: 6	C: 67	D: i	E: 1.1	F: /	G: 107

CCCn1c(=N)c(C#N)cc2c(=O)n3ccccc3nc21
  A: -12	B: -36	C: 105	D: i	E: 1.1	F: 0.2	G: 100

COc1cc(/C=N/NC(=S)Nc2cccnc2)cc(OC)c1OC
  A: 9	B: /	C: /	D: i	E: 1	F: /	G: 108

# One compound at a time, as listed above:
# Profile of CSc1nc(SC(C)C(=O)O)c2c3c(sc2n1)COC(C)(C)C3 (stereo not given) → PKD1 inh: /; Insulin prom inh: /; Insulin prom inh cell count: /; HSV augment: i; HSV augment primary fold: 0.98; GALR2 agonist: /; RGS16-Gao: 100
# Profile of CCOC(=O)c1ccc(NC(=S)Nc2cc(C)cc(C)n2)cc1 → PKD1 inh: -1; Insulin prom inh: /; Insulin prom inh cell count: /; HSV augment: i; HSV augment primary fold: 0.87; GALR2 agonist: /; RGS16-Gao: 103

# Next part:
# Abbreviations: A = PKD1 inh; B = Insulin prom inh; C = Insulin prom inh cell count; D = HSV augment; E = HSV augment primary fold; F = GALR2 agonist; G = RGS16-Gao
CC(C)(C)OC(=O)N1CCC[C@H]1c1nnc(SCc2ccc(Cl)cc2)o1
  A: /	B: /	C: /	D: i	E: 1.1	F: /	G: 98

O=C(NC1CCS(=O)(=O)C1)c1cc(-c2ccccc2)nc2ccccc12 (stereo not given)
  A: 2	B: /	C: /	D: i	E: 0.9	F: /	G: 104

N#CC(c1ccccc1F)(c1ncc(C(F)(F)F)cc1Cl)N1CCOCC1 (stereo not given)
  A: -2	B: 31	C: 125	D: i	E: 0.92	F: -2.5	G: 94

Cc1cccc(NC(=O)c2cc(NC(=O)CCCC(=O)O)ccc2Cl)n1
  A: 11	B: -22	C: 92	D: i	E: 1.1	F: 0.2	G: 99

O=C(c1ccccc1)N1CCN(c2ccc([N+](=O)[O-])cc2-n2cccc2)CC1
  A: /	B: /	C: /	D: i	E: 0.93	F: /	G: 98

c1ccc2c(NC3=NCCCCS3)cccc2c1
  A: -11	B: -21	C: 82	D: i	E: 1.1	F: -2.8	G: 90

COc1cc2c(=O)n(Cc3ccccc3)c(=O)n(CC(=O)C(C)(C)C)c2cc1OC
  A: /	B: /	C: /	D: i	E: 0.95	F: /	G: 102

COc1ccc(/C=C/C(=O)OCCCN(C)C)cc1
  A: -7	B: /	C: /	D: i	E: 0.94	F: /	G: 107

O=C(Nc1nccs1)c1cccc(NC(=O)C(F)(F)F)c1
  A: /	B: /	C: /	D: i	E: 1	F: /	G: 91

O=C(Oc1cccc2c(OC(=O)N3CCOCC3)cccc12)N1CCOCC1
  A: -7	B: -6	C: 120	D: i	E: 1	F: -0.9	G: 101

COc1ccc(NC(=O)c2ccc(-c3ccccc3)cc2)cc1NS(=O)(=O)c1ccc(F)cc1
  A: -7	B: 22	C: 156	D: i	E: 0.93	F: -1.8	G: 97

CC(=O)Nc1cccc(NC(=O)c2cc(-c3cccnc3)nc3ccc(Cl)cc23)c1
  A: -5	B: /	C: /	D: i	E: 0.74	F: /	G: 106

O=C(N/N=C/C=C/c1ccccc1)c1cccs1
  A: 3	B: -3	C: 50	D: i	E: 0.84	F: /	G: 114

CCOc1ccc(/C=C/C(=O)CCC(=O)O)cc1
  A: 2	B: /	C: /	D: i	E: 1.2	F: /	G: 101

CCOCCn1c(SCc2ccccc2)nc2c1c(=O)[nH]c(=O)n2C
  A: /	B: /	C: /	D: i	E: 0.85	F: /	G: 103

O=c1c2ccccc2nc(N2CCN(c3ccccc3)CC2)n1Cc1ccccc1
  A: -10	B: /	C: /	D: i	E: 1.1	F: -0.6	G: 103

COc1ccc(CCNC(=O)C2CCN(S(=O)(=O)N3CCCCC3)CC2)cc1OC
  A: -6	B: /	C: /	D: /	E: /	F: -1.5	G: 107

CCCn1nc(Oc2nc(SC)nc(N(C)C)n2)ccc1=O
  A: -10	B: 12	C: 152	D: i	E: 0.9	F: -0.3	G: 105

Brc1ccc(-c2ncc(-c3ccccc3)cn2)cc1
  A: -7	B: 25	C: 148	D: i	E: 0.92	F: -2.4	G: 86

COc1cc(OC)c(NS(=O)(=O)c2cc(C(=O)OCC(=O)NCC3CCCO3)ccc2OC)cc1Cl (stereo not given)
  A: -7	B: -22	C: 160	D: i	E: 0.86	F: /	G: 94

CC(C)CCn1cnc2c(c1=O)c1nc3ccccc3nc1n2Cc1ccc2c(c1)OCO2
  A: -13	B: /	C: /	D: i	E: 0.93	F: -1.8	G: 76
